CtBP-E1A inh = qHTS Assay for Inhibitors of the CtBP/E1A Interaction; 340,000 tested, 0.49% active; CtBP / adenovirus E1A interaction (AlphaScreen); activity change, % (concentration not given with the values); AlphaScreen GST-E1A/His-CtBP binding, 1536-well; hits give low values; control for the full effect not named in the record; in the data active means activity change below about -65%; inconclusive means about -30% to -65%; inactive means above about -30%; note: % is set by controls: 0 for no effect and ±100 for the full control effect
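In 5 uL wells, 23 nL compound meets equimolar GST-E1A and His-CtBP (5X stock 125 nM each) for 2 h, 37 °C. Beads (5X, 50 ug/mL) then 1 h, 37 °C, dark.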
gsp ag = qHTS for Agonist of gsp, the Etiologic Mutation Responsible for Fibrous Dysplasia/McCune-Albright Syndrome: qHTS. Potency, µM (doses to about 76.9 µM), for inactives: at the top dose activation (cAMP increase), actives largely listed as activators. 340,000 tested, 0.13% active. gsp mutant cells, cAMP HTRF, 30 min; control for the full effect not named in the record. AID 624287, 2012; active = well fitted activation curve with a large enough effect; inconclusive = small, poorly fitted or top-dose-only effect, or another doubt; inactive = no such curve, though single readings can be large or run the other way; cell line not stated here;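 note: phosphodiesterase inhibitor Ro 20-1724 added with compounds to block cAMP breakdown; potency is the fitted concentration of half-maximal effect; nearly all actives have a fitted effect of over 60% in size; about a fifth of the inactives were tested at one dose only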
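Cells in DMEM/10% FBS with G418 were pretreated with compounds in DMSO plus […] (300 uM stock) for 30 min at 37C. cAMP was measured by HTRF (cAMP-d2 plus anti-cAMP antibody-K) after 30 min at room temperature.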
Six1-Eya2 inh = qHTS Assay for Inhibitors of the Six1/Eya2 Interaction; 360,000 tested, 0.56% active; AlphaScreen GST-Six1/His-Eya2 binding, biochemical; hits give low values; control for the full effect not named in the record; activity change, % (test concentration not listed); Homeobox protein SIX1 (Homo sapiens) + Protein phosphatase EYA2 (Homo sapiens), …; in the data active = activity change below about -65%; inconclusive = about -30% to -65%; inactive = above about -30%; note: % is set by controls: 0 for no effect and ±100 for the full control effect; compound concentration not given in the record
Target sequence (O00167 whole entry, looked up): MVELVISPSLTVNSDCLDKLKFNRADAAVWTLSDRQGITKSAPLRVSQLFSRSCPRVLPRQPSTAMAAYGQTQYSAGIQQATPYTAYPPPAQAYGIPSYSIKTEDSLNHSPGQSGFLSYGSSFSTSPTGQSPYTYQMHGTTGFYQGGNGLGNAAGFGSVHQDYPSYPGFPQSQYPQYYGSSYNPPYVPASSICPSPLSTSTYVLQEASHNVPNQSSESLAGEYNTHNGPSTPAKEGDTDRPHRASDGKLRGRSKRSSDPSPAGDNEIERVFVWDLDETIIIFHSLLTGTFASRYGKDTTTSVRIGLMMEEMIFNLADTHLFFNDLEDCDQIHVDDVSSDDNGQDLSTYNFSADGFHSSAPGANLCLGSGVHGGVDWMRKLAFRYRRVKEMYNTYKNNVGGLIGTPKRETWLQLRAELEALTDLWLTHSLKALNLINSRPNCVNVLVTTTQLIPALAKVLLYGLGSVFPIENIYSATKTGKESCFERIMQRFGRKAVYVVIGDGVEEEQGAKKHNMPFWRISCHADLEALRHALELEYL
Target sequence (Q15475 whole entry, looked up): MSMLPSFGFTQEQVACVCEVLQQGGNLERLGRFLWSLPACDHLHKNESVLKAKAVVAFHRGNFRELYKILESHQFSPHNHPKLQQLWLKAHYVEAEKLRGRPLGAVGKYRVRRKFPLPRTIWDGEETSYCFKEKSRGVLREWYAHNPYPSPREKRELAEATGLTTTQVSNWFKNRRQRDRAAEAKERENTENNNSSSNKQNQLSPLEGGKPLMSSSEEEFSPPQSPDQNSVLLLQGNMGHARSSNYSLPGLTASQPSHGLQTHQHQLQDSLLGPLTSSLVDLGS
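AlphaScreen with GST-Six1 and His-Eya2 (5X mix: 250 nM and 500 nM), glutathione donor and nickel acceptor beads; buffer 50 mM Tris pH 8.0, 300 mM NaCl, 1 mM TCEP; 1 h at 37 C in the dark.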
D2 potentiator = Beta-Arrestin HTS for Positive Allosteric Modulators of the Human D2 Dopamine Receptor: Potentiators; D(2) dopamine receptor (Homo sapiens), P14416; DiscoveRx D2 beta-arrestin cells, luminescence, 90 min; 100% = 57 uM dopamine signal; potentiation, % (test concentration not listed); 360,000 tested, 0.23% active; active = potentiation of 50% or more; inconclusive = 30% to 50%; inactive = 30% or less;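 note: compound concentration not given in the record; tested on top of an EC20 dose of dopamine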
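D2 cells co-treated with compound plus 50 nM dopamine (EC20) for 90 min at 37 deg C to detect potentiation. Beta-arrestin recruitment was read as enzyme-fragment luminescence after 1 h at ambient temperature. Full response was set by 57 uM dopamine.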
gsp antagonist = qHTS for Antagonists of gsp, the Etiologic Mutation Responsible for Fibrous Dysplasia/McCune-Albright Syndrome: qHTS; gsp-mutant cells, cAMP HTRF, 30 min; control for the full effect not named in the record; Potency, µM (highest dose often 76.9 µM), without a hit: at the highest dose activity change, negative = inhibition, most hits filed as inhibitors; 340,000 tested, 0.4% active; AID 624288, 2012; active = falling curve of any shape with a large fitted effect; inconclusive = falling curve, mostly with a smaller effect; inactive = flat or rising curve; cell line not stated here;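 note: intracellular cAMP measured with PDE inhibitor Ro 20-1724 present during compound exposure; potency is the fitted concentration of half-maximal effect; % is set by controls: 0 for no effect and ±100 for the full control effect; nearly all actives have a fitted effect of over 65% in size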
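Cells in G418 medium, seeded 16-24 h, 37C; buffer exchange to DPBS + 1 mM CaCl2, 0.5 mM MgCl2, 0.05% BSA; cpds in DMSO + […] (300 uM stock), 30 min 37C; HTRF cAMP detection.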
D2 agonist = Beta-Arrestin HTS for Positive Allosteric Modulators of the Human D2 Dopamine Receptor: Agonists; D(2) dopamine receptor (Homo sapiens), P14416; DiscoveRx PathHunter D2 beta-arrestin, luminescence, 90 min; 100% = 57 uM dopamine signal; activation, % (test concentration not listed); 360,000 tested, 0.084% active; AID 624465, 2012; in the data active = activation above about 40%; inconclusive = about 15% to 40%; inactive = below about 15%; note: compound concentration not given in the record; the text of the record calls up to 30% inactive
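DiscoveRx PathHunter D2 beta-arrestin cells (2,100/well) attached overnight, then compound-stimulated 90 min at 37 C in HBSS/10 mM HEPES/0.1% Tween-20 buffer; beta-galactosidase complementation read by luminescence after 1 h at ambient temperature. Dopamine 57 uM final (EC100) as control.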
Numbers without * were called inactive; ? = inconclusive; nt = not tested or not shown; [ ] = dose if it differs, or a comment. Rows are unselected; overall some 1.4% were active at least once.

SMILES	CtBP-E1A inh	gsp ag	Six1-Eya2 inh	D2 potentiator	gsp antagonist	D2 agonist
CCn1c(/N=C/c2ccc(OC)cc2O)nc2ccccc21	-7	19%	3	-2	3%	-3.0
Cc1ccnc(NC(=O)CCC(=O)N(CC(=O)NCc2ccccc2)Cc2cccs2)c1	4	-3%[15.4 µM]	-8	-1	-4%	1.2
COc1ccc(NC(=O)C2=C(C)C(=O)OC23CCC(C)CC3)c(OC)c1 (configuration not stated)	4	?	-3	2	2%	-0.3
Cc1ccccc1Nc1nnc(SCC(=O)NCc2cccs2)s1	4	16%	1	-19	-3%	-1.0
O=C(O)c1cc2c(s1)CCCC2	3	-2%	11	13	4%	-0.6
CC(C)n1cnc2cc(NC(=O)c3ccco3)ccc21	4	-18%[15.4 µM]	8	-5	0%	-5.4
O=C(COc1nnnc2ccccc12)N1CCCc2ccccc21	4	6%	2	-17	7%	-2.4
CN(C)S(=O)(=O)c1cccc(C(=O)OCC(=O)N2CCCC2=O)c1	-8	-64%[inhibitor]	-9	-30	-7%	-3.3
CN(CCC#N)C(=O)Cn1nc(Cc2ccncc2)c2ccccc2c1=O	-1	-22%	2	-6	5%	-3.3
S=c1[nH]nc(COc2ccccc2)n1/N=C/c1ccccn1	7	15%	3	-16	?	-9.4
O=C(NCCCCNC(=O)c1c(Cl)cccc1Cl)c1c(Cl)cccc1Cl	4	1%[15.4 µM]	5	-6	12%	-5.5
COc1ccc(C(=O)Sc2ccc(C)cc2)cc1OC	21	?	4	1	11%	1.8
COC(=O)COc1ccc2c(-c3cccc([N+](=O)[O-])c3)cc(=O)oc2c1	-4	25%	4	19	-1%	1.1
COc1cccc(CN2CCNC(=O)C2CC(=O)NCCc2cccc(C)n2)c1OC (configuration not stated)	nt	0%	2	-1	-4%	7.1
CCCC[C@@H]1CN=C(N)N1CCc1cccc(F)c1	3	-3%	0	-11	13%	-0.1
CN1C(=O)c2cccc3c(Cl)ccc(c23)C1=O	7	-3%	-7	2	-26%	-3.2
CC(C)(C)c1ccc(S(=O)(=O)NC(=O)C2(C)CCN2C(=O)Cc2cc(F)ccc2F)cc1 (configuration not stated)	0	nt	0	6	nt	-6.1
CCOC(=O)c1cnc2ccc(OC)cc2c1NCCc1ccc(OC)c(OC)c1	10	6%[15.4 µM]	10	-1	?	5.3
CCC1(CCC(C)C)SC(N)=NC1=O (configuration not stated)	9	-9%[15.4 µM]	2	-34	3%	-1.5
COC(=O)c1sc2nc(SCc3cccc(F)c3)n(N)c(=O)c2c1C	2	-4%[15.4 µM]	1	1	5%	2.0
COc1ccc(NC(=O)c2sc3ncn(CC(=O)N4CCN(c5ccccn5)CC4)c(=O)c3c2C)c(OC)c1	7	-1%	1	-7	-1%	-2.6
COc1cccc(NC(=O)C(OC(=O)/C=C/c2ccc3c(c2)OCO3)c2ccccc2)c1 (configuration not stated)	-16	-39%[inhibitor]	-5	-39	-6%	-1.6
CCOc1ccc(N2CC(C(=O)N3CCc4ccccc43)CC2=O)cc1 (configuration not stated)	-2	5%[15.4 µM]	7	-7	-5%	-5.6
CC(C)C[C@H](NC(=O)Nc1ccc(Oc2ccccc2)cc1)C(=O)O	1	-54%[inhibitor]	-1	-10	7%	-4.6
CCOC(=O)C1(C)CCN1C(=O)COc1ccccc1 (configuration not stated)	0	nt	8	-7	nt	-5.2
Cc1nnc(NC(=O)CSc2ncnc3scc(-c4ccccc4)c23)s1	-3	?	0	-13	?	-4.0
Cc1cccc(-c2noc(CCC(=O)N3CCN(c4cc(C)ccc4C)CC3)n2)c1	-1	nt	3	3	-12%	1.3
COc1cccc(NC(=S)N/N=C2\CC(C)(C)Oc3ccc(O)cc32)c1	nt	-18%	-23	-13	28%	-5.9
COc1ccc(Cl)cc1C(=O)NNC(=O)c1ccncc1	nt	-39%	-10	-21	-7%	-5.8
COc1ccc(CCN2CC(C(=O)NCCc3ccc(C(F)(F)F)cc3)CCC2=O)cc1 (configuration not stated)	9	-35%	1	-25	-19%	-4.4
C[C@H](CO)N1C[C@H](C)[C@@H](CN(C)S(=O)(=O)c2cccs2)Oc2c(NC(=O)Nc3ccc4c(c3)OCO4)cccc2C1=O	-8	12%	-2	-1	?	0.7
CCN(CC)S(=O)(=O)c1ccc(N2CCOCC2)c(NS(=O)(=O)c2ccc(C)cc2)c1	3	13%	4	-10	-10%	-0.7
COc1ccc([N+](=O)[O-])cc1NC(=O)C1(c2ccc(OC)c(OC)c2)CCOCC1	25	15%[15.4 µM]	2	-9	-18%	-18
CC(Sc1nnc(C2CCCCC2)n1N)C(=O)NCc1ccc2c(c1)OCO2 (configuration not stated)	-2	-32%[inhibitor]	10	-7	-6%	-0.5
O=S1(=O)N[C@@H](Cc2ccccc2)COc2ccc(Cl)cc21	6	-30%	8	4	nt	-8.7
CCN(CC)S(=O)(=O)c1cccc(NC(=O)COC(=O)C2=COCCO2)c1	6	2%	-2	-10	17%	0.2
O=C(Nc1ccccc1Cl)c1ccccc1CC(O)(c1ccccc1)c1ccccc1	3	12%	1	-9	nt	-5.0
CCCCCCCC(O)CC(CC1CCCCC1)C(=O)NN (configuration not stated)	-10	-10%	0	-26	-5%	-5.8
COc1ccc(OC)c2[nH]c(=O)c(CCNC(=O)c3ccc(S(=O)(=O)N(C)C)cc3)cc12	-11	-4%	2	23	2%	-3.1
Cc1ccc(CN2CC(N3CCN(C)CC3)CS2(=O)=O)cc1 (configuration not stated)	2	nt	5	-11	nt	-4.5
Cc1ccc(NC(=O)NNC(=O)c2snnc2C)cc1	nt	1%	0	-13	-10%	-1.6
Cc1sc2ncn(CC(=O)N3CCN(c4ccc(F)cc4)CC3)c(=O)c2c1S(=O)(=O)N1CCOCC1	2	1%[15.4 µM]	5	-10	-11%	-3.2
CS(=O)(=O)N1CCCC(C(=O)N2CCN(c3cccc(Cl)c3)CC2)C1 (configuration not stated)	0	24%	7	2	2%	4.4
COc1ccc(C(=O)N(c2ccc(C)cc2)C2C=CS(=O)(=O)C2)cc1OC (configuration not stated)	6	?	2	0	-3%	-1.2
O=C(CSc1nnc(-c2ccncc2)o1)N1CCCCCC1	-4	-8%[15.4 µM]	7	-3	10%	-1.9
Cc1sc(NC(=O)C2=COCCO2)nc1-c1ccc(Br)cc1	-10	3%[15.4 µM]	-9	-12	-38%	-2.9
COc1ccc(C2CC(c3c(Cl)cccc3Cl)n3nc(N)nc3N2)cc1 (configuration not stated)	0	30%	1	-6	-10%	-2.5
Cc1cc(-c2ccc(Br)cc2)n2nc(C)cc2n1	14	-52%[inhibitor]	26	-18	nt	-3.0

9 structures already listed, ordered by formula weight, rising:
SMILES	CtBP-E1A inh	gsp ag	Six1-Eya2 inh	D2 potentiator	gsp antagonist	D2 agonist
CCC1(CCC(C)C)SC(N)=NC1=O (configuration not stated)	9	-9%[15.4 µM]	2	-34	3%	-1.5
CN1C(=O)c2cccc3c(Cl)ccc(c23)C1=O	7	-3%	-7	2	-26%	-3.2
COc1ccc(Cl)cc1C(=O)NNC(=O)c1ccncc1	nt	-39%	-10	-21	-7%	-5.8
Cc1ccc(CN2CC(N3CCN(C)CC3)CS2(=O)=O)cc1 (configuration not stated)	2	nt	5	-11	nt	-4.5
Cc1ccccc1Nc1nnc(SCC(=O)NCc2cccs2)s1	4	16%	1	-19	-3%	-1.0
COC(=O)c1sc2nc(SCc3cccc(F)c3)n(N)c(=O)c2c1C	2	-4%[15.4 µM]	1	1	5%	2.0
CS(=O)(=O)N1CCCC(C(=O)N2CCN(c3cccc(Cl)c3)CC2)C1 (configuration not stated)	0	24%	7	2	2%	4.4
COc1ccc(C(=O)N(c2ccc(C)cc2)C2C=CS(=O)(=O)C2)cc1OC (configuration not stated)	6	?	2	0	-3%	-1.2
COc1ccc([N+](=O)[O-])cc1NC(=O)C1(c2ccc(OC)c(OC)c2)CCOCC1	25	15%[15.4 µM]	2	-9	-18%	-18

Carrying on:
SMILES	CtBP-E1A inh	gsp ag	Six1-Eya2 inh	D2 potentiator	gsp antagonist	D2 agonist
N#Cc1ccccc1NC(=O)c1ccc2c(c1)OCCO2	4	11%[15.4 µM]	17	-1	6%	-4.2
COc1ccc(C)cc1NC(=O)c1cnc2scc(C)n2c1=O	-21	-20%	11	-8	-1%	-6.1
CCCCNC(=O)c1ccccc1NC(=O)CN(c1ccccc1)S(=O)(=O)N(C)C	8	-38%[inhibitor]	2	-5	19%	-0.8
COc1ccc(-c2nc(CS(=O)(=O)CC(=O)NCCc3ccc(C)cc3)c(C)o2)cc1	nt	?	0	0	3%	-0.9
O=C(CCCN1C(=O)C(c2ccccc2)Oc2cccnc21)Nc1cccc(F)c1 (configuration not stated)	1	19%	0	-3	-3%	2.1
CC(C)NS(=O)(=O)c1ccc(NC(=O)C(C)OC(=O)CCC2CCCC2)cc1 (configuration not stated)	8	22%	3	-4	-3%	0.7
COc1ccc(C2N=C(c3ccccc3)C(C)(C)N2O)cc1 (configuration not stated)	-6	10%	-2	-21	13%	-4.1
Cc1cc(NC(=O)COC(=O)COc2ccc(Cl)c(C)c2)no1	0	-19%	1	-1	nt	-2.9
COc1ccc(C(C)=O)cc1COC(=O)Cc1n[nH]c(=O)c2ccccc12	10	-7%	5	-3	-9%	-3.0
C[C@H](CO)N1C[C@H](C)[C@@H](CN(C)C(=O)c2cnccn2)Oc2ncc(Br)cc2C1=O	3	-17%	4	-9	nt	-6.5
CC(=O)Nc1cccc(C(=O)N/N=C/c2c[nH]c3ccccc23)c1	-23	-2%[15.4 µM]	-15	-15	5%	-2.8

Screens: PubChem, National Center for Advancing Translational Sciences (NCATS)
